gsp ag: qHTS for Agonist of gsp, the Etiologic Mutation Responsible for Fibrous Dysplasia/McCune-Albright Syndrome: qHTS | gsp mutant cells, cAMP HTRF, 30 min; control for the full effect not named in the record | Potency, µM (series often up to 76.9 µM), inactives show at the highest dose activation (cAMP increase), usual class: activators | 0.13% of 340,000 active | AID 624287, 2012; active = well fitted activation curve with a large enough effect; inconclusive = small, poorly fitted or top-dose-only effect, or another doubt; inactive = no such curve, though single readings can be large or run the other way; cell line not stated here;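 further: phosphodiesterase inhibitor Ro 20-1724 added with compounds to block cAMP breakdown; potency means the concentration at half of the fitted maximal effect; nearly all actives have a fitted effect of over 60% in size; about a fifth of the inactives were tested at one dose only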
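Cells in DMEM/10% FBS with G418 were pretreated with compounds in DMSO plus […] (300 uM stock) for 30 min at 37C. cAMP was measured by HTRF (cAMP-d2 plus anti-cAMP antibody-K) after 30 min at room temperature.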
PINK1 expr mod: A Quantitative High throughput Screen to Identify Chemical Modulators of PINK1 Expression | PINK1 immunofluorescence, high-content cytometry, 24 h | Potency, µM (highest dose often 76.6 µM), inactives show at the highest dose activation (PINK1 increase), usual class: activators | 0.2% of 410,000 active | AID 624263, 2012; active = well fitted activation curve with a large enough effect; inconclusive = small, poorly fitted or top-dose-only effect; inactive = flat fitted curve, though single readings scatter; cell line not stated here;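 further: potency means the concentration at half of the fitted maximal effect; % of control where 0% means no effect; nearly all actives have a fitted effect of over 65% in size; a mitochondrial uncoupler was the plate control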
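Stable cell line treated 24 h with compounds at 5 concentrations (CCCP controls), then fixed and immunostained for PINK1 plus nuclear and cell stains; PINK1 immunofluorescence quantified by laser-scanning microplate cytometry.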
Menin MLL FP FL: qHTS Assay for Inhibitors Targeting the Menin-MLL Interaction in MLL Related Leukemias: Competition With Fluorescein Labeled MLL-derived Peptide; Fluorescence polarization, fluorescein-MLL peptide displacement from menin; FP activity change, % at 61.4 µM; 290,000 tested, under 10 active; AID 1766, 2009; inconclusive = falling polarisation curve, or a change in total fluorescence; inactive = total fluorescence flat and polarisation flat or rising; no compound was filed as active; the % refers to the polarisation; negative = inhibition;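 further: % of control where 0% means no effect; inhibitors lower the polarisation; unlabelled MLL peptide was the positive control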
ClpP mod: qHTS Assay for Activators of ClpP; ATP-dependent Clp protease proteolytic subunit (Bacillus subtilis (strain 168)), P80244; purified B. subtilis ClpP, FRET peptide cleavage, 20 min; Potency, µM (doses to about 57.5 µM), inactives show top-dose activity change, negative = active; 1.9% of 340,000 active; active = well fitted falling curve with a large enough effect; inconclusive = small, poorly fitted or top-dose-only effect; inactive = no such curve, though single readings can be large or run the other way; further: potency means the concentration at half of the fitted maximal effect; the source files actives as falling curves though it sought activators and does not explain the sign; nearly all actives have a fitted effect of over 65% in size; many hits overshoot -100%
Target sequence (P80244 whole entry, looked up): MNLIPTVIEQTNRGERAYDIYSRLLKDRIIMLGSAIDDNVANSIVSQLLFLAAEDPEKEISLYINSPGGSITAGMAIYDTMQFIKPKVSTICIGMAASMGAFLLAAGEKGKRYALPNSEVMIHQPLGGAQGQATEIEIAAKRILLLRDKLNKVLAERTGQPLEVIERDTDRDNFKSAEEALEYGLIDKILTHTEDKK
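Buffer: 100 mM Tris/HCl pH8, 100 mM KCl, 0.05% low protease BSA, 2.5% glycerol, 0.01% Tween-20. ClpP 10 microg/mL final; 20 min RT; delta FRET normalized to ADEP and DMSO controls.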
Sfp PPTase inh: qHTS Assay for Inhibitors of Bacillus subtilis Sfp phosphopantetheinyl transferase (PPTase); AID 1490, 2009; Potency, µM, for the others: max response, negative = inhibition, hits mostly inhibitors; Biochemical Sfp PPTase activity, qHTS; 3.5% of 310,000 active; active means well fitted inhibition curve with a large enough effect; inconclusive means small, poorly fitted or top-dose-only effect, or another doubt; inactive means no such curve, though single readings can be large or run the other way;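 further: the enzyme is Sfp with the accession as filed and its product quenches rhodamine fluorescence; potency means the concentration at half of the fitted maximal effect; 0% = enzyme reaction without inhibitor and -100% = no enzyme wells; top concentration of the series not given in the record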
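Fluorescence-quenching assay: 15 nM Sfp-PPTase preincubated 15 min at room temperature with compound, then 5 uM rhodamine-CoA and 12.5 uM BHQ-2-labelled YbbR peptide added. Fluorescence (ex 525/em 598 nm) read at start and after 30 min; difference gives rate.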
D2 ag: Beta-Arrestin HTS for Positive Allosteric Modulators of the Human D2 Dopamine Receptor: Agonists | activation, % (no concentration beside the values) | DiscoveRx PathHunter D2 beta-arrestin, luminescence, 90 min; 100% = 57 uM dopamine signal | D(2) dopamine receptor (Homo sapiens), P14416 | 0.084% of 360,000 active | AID 624465, 2012; in the data active = activation above about 40%; inconclusive = about 15% to 40%; inactive = below about 15%; further: compound concentration not given in the record; the text of the record calls up to 30% inactive
Target sequence (P14416 whole entry, looked up): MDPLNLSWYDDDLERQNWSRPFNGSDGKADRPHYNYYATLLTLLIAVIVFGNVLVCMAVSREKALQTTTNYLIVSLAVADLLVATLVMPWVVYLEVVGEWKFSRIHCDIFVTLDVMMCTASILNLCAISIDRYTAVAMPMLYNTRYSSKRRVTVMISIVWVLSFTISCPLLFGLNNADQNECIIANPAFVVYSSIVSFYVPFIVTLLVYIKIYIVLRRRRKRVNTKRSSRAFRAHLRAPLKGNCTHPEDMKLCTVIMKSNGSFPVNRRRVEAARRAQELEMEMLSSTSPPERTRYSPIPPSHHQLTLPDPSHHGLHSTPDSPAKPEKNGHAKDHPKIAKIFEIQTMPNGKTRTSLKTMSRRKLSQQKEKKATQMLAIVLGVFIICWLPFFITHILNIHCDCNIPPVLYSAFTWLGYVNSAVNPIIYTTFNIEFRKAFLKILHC
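Agonist mode: compounds alone added to overnight-plated D2 PathHunter cells for 90 min at 37 C, with 57 uM final dopamine (EC100) defining full response. Beta-arrestin recruitment detected by chemiluminescent reagent, read after 1 h at ambient temperature.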
gsp antagonist: qHTS for Antagonists of gsp, the Etiologic Mutation Responsible for Fibrous Dysplasia/McCune-Albright Syndrome: qHTS; gsp-mutant cells, cAMP HTRF, 30 min; control for the full effect not named in the record; Potency, µM (titrated, usually from 76.9 µM), for inactives: at the highest dose activity change, negative = inhibition, actives largely listed as inhibitors; 0.4% of 340,000 active; AID 624288, 2012; active = falling curve of any shape with a large fitted effect; inconclusive = falling curve, mostly with a smaller effect; inactive = flat or rising curve; cell line not stated here;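 further: intracellular cAMP measured with PDE inhibitor Ro 20-1724 present during compound exposure; potency means the concentration at half of the fitted maximal effect; on the % scale 0 is the no-effect control and ±100 the full control effect; nearly all actives have a fitted effect of over 65% in size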
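Cells in G418 medium, seeded 16-24 h, 37C; buffer exchange to DPBS + 1 mM CaCl2, 0.5 mM MgCl2, 0.05% BSA; cpds in DMSO + […] (300 uM stock), 30 min 37C; HTRF cAMP detection.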
Starred values were filed as active, the others as inactive; ? = inconclusive; . = not tested or not shown; & = joins results of further samples; [ ] = remark or other dose.

SMILES	gsp ag	PINK1 expr mod	Menin MLL FP FL	ClpP mod	Sfp PPTase inh	D2 ag	gsp antagonist
COc1cc(NC(=O)CSc2nc(C)c(C)c(C)n2)c(C)cc1[N+](=O)[O-]	-3%	0.2%	6.2	0.9%	21%	-4.2	-2%
C/C(=N/NS(=O)(=O)c1ccc(Cl)cc1)c1cccc(NC(=O)c2ccc(Cl)cc2Cl)c1	-34%[inhibitor]	1.2%	2.9	-0.5%	36%[activator]	-0.2	-4%
O=C(CCl)N(CCCNC(=O)C(F)(F)F)c1ccc([N+](=O)[O-])cc1	12%[15.4 µM]	-0.9%	2.9	.	2%	2.0	-4%
O=C(NNC(=S)Nc1cccc(C(F)(F)F)c1)c1ccccc1Cl	-15%[15.4 µM]	?	-0.6	3.6%	-3%	-16	-1%
Cc1cccc(NC(=O)C(CC(C)C)NC(=O)C2CCC(C)CC2)n1 (centres undefined)	0%	3.3%	0.8	-5.0%	24%	-3.1	7%
CSc1nn2cc(CCN3CCOCC3)c(-c3ccc(F)cc3)nc2c1C#N	-6%[15.4 µM]	0.5%	-7.8	-7.4%	13%	0.3	-35%
COc1ccc(C(CNC(=O)c2cc3c(s2)CCC(C)C3)N2CCOCC2)cc1 (centres undefined)	17%	-1.9%	.	-6.8%	.	-3.0	-5%
COC(=O)c1cc(NC(=O)c2ccccc2)c(=O)oc1C/C=N\OCc1ccc(Cl)cc1Cl	-51%[inhibitor]	?	-0.8	-2.2%	-9%	-2.6	-9%
N#CC1=C(Nc2ccccc2Cl)SC2(CCCC2)NC1=O	.	0.8%	.	-2.1%	.	-5.3	.
CN(C)CCn1cnc2c1c(=O)[nH]c(=O)n2Cc1ccccc1	9%[15.4 µM]	0.0%	0.1	-0.4%	17%	-0.2	8%
CC(C)C[C@H](NC(=O)N1c2ccccc2NC(=O)[C@@H]1C(C)C)C(=O)N1CCC[C@@H]1C(=O)O	.	-0.2%	?	1.1%	5%	5.3	11%
O=C(Cn1nc(-c2nn(CC(=O)c3ccccc3)c3[n+]2CCCCC3)[n+]2c1CCCCC2)c1ccccc1	16%[15.4 µM]	2.0%	-0.6	.	17%	-3.5	9%
Cc1ccc(NC(=O)c2sc(=S)n(-c3cc(C)ccc3F)c2N)cc1	?	14%	-0.3	-0.9%	50µM*	-1.5	-28%
CCCCN(C=O)c1c(CC)nc2ccc(C(=O)NCc3ccc4c(c3)OCO4)cn12	.	1.6%	.	-10.0%	.	-4.5	.
COc1ccccc1NC(=O)CN1C(=O)C2(OCCCO2)c2ccccc21	25%	1.7%[38.3 µM]	-0.3	-1.2%	19%	0.2	-10%
O=C(NCCCN1CCOCC1)C(=O)NCc1ccco1	2%	1.7%	7.6	-2.8%	22%	0.4	6%
CC1Cc2ccccc2N1C(=O)CCNS(=O)(=O)c1cccc2nsnc12 (centres undefined)	13%	-3.3%	13	?	24%	0.4	-3%
Cc1cccc(-c2cnn(-c3ccccc3)c2N)c1	14%	0.4%	2.0	-1.1%	0%	2.1	2%
Cc1cc([N+](=O)[O-])nn1CC(=O)NCc1nc2ccccc2[nH]1	17%[15.4 µM]	-1.0%	-2.8	.	16%	-7.2	7%
C[N+](C)(C)CC(=O)N1CCN(c2ccc3ccccc3n2)CC1	?	-2.1%	-10	3.3%	9%	2.6	7%
O=C(Cc1c(F)cccc1Cl)NCCCn1ccnc1	29%	.	-0.9	-0.6%	21%	-0.8	7%
COC(=O)[C@H](Cc1c[nH]c2ccccc12)NC(=O)Cc1c[nH]c2ccccc12	-72%[inhibitor]	1.6%	-6.8	-1.1%	0%	-4.6	2%
COc1ccc(CN2[C@@H](CC(=O)O)c3cc(F)ccc3S2(=O)=O)cc1	-88%[inhibitor]	-0.7%	.	-4.0%&0.8%	.	-4.8	1%
COc1ccc(NCC(O)COc2ccc(C(C)(C)C)cc2)cc1 (centres undefined)	4%[15.4 µM]	6.2%	-2.5	-2.5%	17%	4.4	3%
COCCNC(=O)c1c[nH]c2ccc(S(=O)(=O)N3CCOCC3)cc2c1=O	-7%	-0.1%	0.1	4.1%	16%	-2.5	-10%
O=C(c1ccncc1)N1CCN(S(=O)(=O)c2ccc(OC(F)(F)F)cc2)CC1	-9%	1.5%	.	-1.0%	.	1.3	-3%
CC1C/C(=N/Nc2ccc([N+](=O)[O-])cc2[N+](=O)[O-])CC(C)(C)C1 (centres undefined)	?	0.7%	0.3	1.2%	-10%	-0.6	3%
O=C(CN1CCCCC1)Nc1cc(Cl)ccc1Cl	11%	1.0%[38.3 µM]	0.2	-0.4%	-2%	-3.0	-1%
COc1ccc(CC(=O)NCc2ccco2)cc1OC	?	0.5%[38.3 µM]	-2.4	-0.6%	?	-1.6	6%
C=CCn1cnc2scc(-c3ccc(C)cc3)c2c1=O	1%	-0.3%	1.7	-2.5%	12%	0.9	-4%
CCC(C)NC(=O)C(Cc1ccccc1)n1cccc1 (centres undefined)	-14%	-0.6%	2.4	0.8%	25%	-4.0	5%
Cc1ccc2nsnc2c1NC(=O)COc1ccccc1	?	-0.5%	-2.0	.	5%	-1.3	7%
Cc1cc(OC(C)C(=O)NCc2ccccn2)c2c(C)cc(=O)oc2c1 (centres undefined)	12%	0.6%	-0.8	3.6%	16%	1.4	-2%
O=C(NC(=S)Nc1ccc(-c2ccccc2)cc1)c1ccccc1	13%	1.6%	.	.	.	-1.1	-8%
CC1(C(=O)Nc2ccc3c(c2)OCO3)Cc2c(-c3cccc(C(F)(F)F)c3)ccnc2O1 (centres undefined)	.	0.6%	.	-24%	.	-3.7	.
CCCC(=O)Nc1ccc(NC(=S)NC(=O)c2ccccc2[N+](=O)[O-])cc1	-15%	9.7%	6.8	-4.7%	4%	-3.2	11%
O=C1c2ccc3c4c(ccc(c24)C(=O)N1c1ccc2ccccc2c1)CC3	-12%	6.4%	4.9	-11%	3%	0.5	6%
COc1ccc(NC(=O)c2ccc(Cc3ccc(C)cc3)o2)cc1	0%	1.6%	0.2	-3.0%	-4%	1.3	10%
Cc1occc1-c1nnc(SCC(=O)N2CCCCC2C)o1 (centres undefined)	?	-0.4%	.	-0.5%	.	-1.5	0%
Cc1ccc(C2=NC3(CCCCC3)N=C2SCC(=O)Nc2ccc3c(c2)OCCO3)cc1	8%	4.1%	-2.5	1.9%	17%	-1.9	?
Cc1cc(=O)oc2cc(OCC(=O)N/N=C/c3cc([N+](=O)[O-])ccc3O)ccc12	?	3.7%	-0.7	-23%	24%	-1.6	-16%
CC(Sc1nnc(-c2ccccc2F)n1N)C(=O)NCC1CCCO1 (centres undefined)	-1%	-1.0%	.	-5.5%	.	-1.3	2%
O=C1CCCC2=C1C(c1ccc(O)cc1)c1c(ccc3ccccc13)N2 (centres undefined)	7%[15.4 µM]	3.3%	14	.	50µM*	-5.3	-15%
CSc1ncccc1C(=O)Nc1cccc(S(=O)(=O)N2CCOCC2)c1	5%	0.5%	.	-0.5%	.	2.0	10%
COc1ccc(Cl)cc1C1=NOC2(CCC2)C(=O)N1Cc1ccc(NC(C)=O)cc1	.	-0.5%	.	-2.7%	.	-4.3	.
CC/C(=N\NC(N)=O)c1ccc(OC(F)F)cc1	5%	0.6%	0.7	.	11%	-4.5	6%
Cc1cccnc1NC(=S)NC(=O)c1oc2ccccc2c1C	-10%	5.1%	1.4	.	-6%	1.4	-15%
O=S(=O)(Cc1ccccc1)N1CCN(C2Cc3ccccc3C2)CC1	-23%	-0.3%	-1.6	-6.3%	2%	-1.5	7%
COc1ccc(CN2CCNC(=O)C2CC(=O)NCC2CCOCC2)cc1C (centres undefined)	0%	-0.6%	-13	-3.2%	5%	1.3	12%
Cc1[nH]c2ccccc2c1/C=N/Nc1nc2ccccc2[nH]1	6%[15.4 µM]	0.2%	4.3	.	11%	?	?
CNC(=O)c1ccc(NC(=O)c2ccccc2OCc2c(C)noc2C)cc1	-43%[inhibitor]	-0.1%	.	-0.4%	.	-1.1	.
COc1cc([N+](=O)[O-])cc(/C=N/NC(=O)c2ccc(NC(=O)c3ccc(C)cc3)cc2)c1O	-2%[15.4 µM]	28%	4.6	.	3%	5.6	-6%
O=C(O)CSCC(=O)Nc1ccc(-c2nc3ccccc3s2)cc1	36%	2.1%	2.7	.	?	2.8	-3%
COc1cccc(NC(=O)C2CCCN2C(=O)Nc2ccccc2F)c1 (centres undefined)	-20%	-1.1%[38.3 µM]	1.0	1.0%	13%	-1.9	2%
COc1ccc(/C=C/C(=O)Oc2ccc(C)cc2)cc1	?	1.7%	-1.3	-0.4%	6%	11	13%
COc1cc(OC)nc(/N=C/N(C)C)n1	-5%[15.4 µM]	-0.1%	1.6	.	-24%	-2.2	9%
CC(Oc1ccc(Cl)cc1Cl)C(=O)NNC(=O)c1cccnc1 (centres undefined)	13%	-0.8%	0.1	0.9%	23%	-2.8	11%
Cc1nc(Cl)sc1C(=O)Nc1ccc(C(F)(F)F)cc1	-2%	6.1%	-2.1	2.1%	17%	-5.5	-23%
O=[N+]([O-])c1ccccc1S(=O)(=O)NC1CC2CCC1C2 (centres undefined)	-46%[inhibitor]	1.2%	4.3	.	9%	8.6	-2%

Compound activity from PubChem BioAssay.
